Compound activity as filed in PubChem.
HIV TAR-Tat = HIV-1 TAR-Tat binding disruption; HIV-1 TAR RNA, Tat peptide displacement FRET; active compounds read high; z-score (test concentration not listed); 0.6% of 100,000 active;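 further: score is relative to mean and SD of negative controls; some compounds called inactive have numbers as strong as hits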
CDC25B CDK2 inh = human CDC25B-CDK2/CyclinA binding inhibition. 0.72% of 94,000 active. z-score (no concentration beside the values). HTRF CDC25B-CDK2/CyclinA binding, anti-His/anti-Flag; active compounds read high;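 further: score is relative to mean and SD of negative controls; strong numbers were not always called active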
Active calls of the source: *; x = no result given.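 How the source made its calls: active means z-score from 3 up in half or more of its runs; inactive means the rest.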

structure	HIV TAR-Tat	CDC25B CDK2 inh
CCOC(=O)CCCN1C(=O)S/C(=C/c2ccc(OC)cc2)C1=S	0.49	-1.7
CCSc1nc(=O)c2c(n1C)NC(=O)CC2c1ccc(OC(C)C)cc1 (configuration not stated)	2.2	-2
O=C(CSc1n[nH]c(=O)n1Cc1ccco1)Nc1ccccc1	x	-0.15
COc1ccccc1C(CCNS(=O)(=O)c1ccccc1)c1ccc2c(c1)OCO2 (configuration not stated)	x	0.68
CC(=O)O[C@H]1CC[C@@]2(C)C(CC[C@]3(C)C2C(=O)C=C2C4[C@@H](C)[C@H](C)CC[C@]4(C(=O)O)CC[C@]23C)C1(C)C (some centres not stated)	0.38	x
CC1=C(C(=O)OC2CCCCC2)C(c2ccncc2)C2=C(CC(C)(C)CC2=O)N1 (configuration not stated)	0.59	-1.1
COc1ccc(-n2ncc3c2ncn2nc(-c4ccccc4Cl)nc32)cc1	0.19	-1.4
O=C(CN1C(=O)c2cccc3cccc1c23)NCc1cccnc1	1.4	1.1
Cn1c(N2C(=O)CC(Cc3ccccc3)C2=O)nc2ccccc21 (configuration not stated)	0.07	1.4
O=C1C2C3C=CC(O3)C2C(=O)N1OCc1ccc(OC(F)(F)F)cc1 (configuration not stated)	x	-1.7
Cc1nc2ccc(Cl)cn2c(=O)c1NC(=O)Cc1ccc(F)cc1	1.8	x
COC(=O)c1ccc(C(=O)Nc2nc3ccc4ccccc4c3s2)cc1	x	-3.7
COc1ccc(Cl)cc1NS(=O)(=O)c1ccc(F)cc1	-0.16	-2.1
O=c1[nH]c2ccccc2c(=O)n1CCNc1cccc(Cl)c1	x	-0.69
O=C(CSc1ccc2nnc(-c3ccccc3)n2n1)Nc1ccc2c(c1)OCO2	x	-11
CCc1ccc(NS(=O)(=O)c2ccc3c(c2)C(C)(C)C(=O)N3)cc1	-0.53	x
N#C/C(=N\O)S(=O)(=O)c1ccccc1	x	-1.8
Cn1c(=O)c2c(nc(NCc3cccnc3)n2Cc2ccc(F)cc2)n(C)c1=O	-1.9	0.55
Cc1[nH]nc(-n2cnnc2)c1NS(=O)(=O)c1ccc2c(c1)CCCC2	3	-2.4
O=C(CSc1nc2ccccc2c(=O)[nH]1)Nc1ccc(F)c(Cl)c1	1.4	x

(listing goes on)
structure	HIV TAR-Tat	CDC25B CDK2 inh
Cc1cc(-c2ccc(S(=O)(=O)N3CCN(Cc4ccccc4)CC3)s2)on1	-0.39	x
Cc1c(C)[n+](=O)c(-c2ccc(Cl)cc2)c(C)n1[O-]	x	-1.3
Cc1cccnc1NC(=O)C1CC(=O)OC12CCCCC2 (configuration not stated)	1.2	14*
COc1ccc(N2CCN(S(=O)(=O)c3cc(Br)cnc3N)CC2)cc1	0.96	-1.3
O=C(O)CC1(CC(=O)NCc2ccoc2)CCCCC1	x	-0.12
Cc1ccc(N2C(=O)N(c3ccc(Cl)cc3)C3CS(=O)(=O)CC32)cc1 (configuration not stated)	-1.3	-1.7
COc1cccc(-c2noc(NCc3ccco3)n2)c1	0.06	x
CCCOC(=O)C1=C(C)NC2=C(C(=O)C(C(=O)OC)C(C)C2)C1c1ccccc1C (configuration not stated)	1.3	-0.87
CC1CCc2sc3ncnc(N4CCN(CCO)CC4)c3c2C1 (configuration not stated)	0.36	0.3
CCn1cc(C(=O)N2CCc3ccccc32)c(=O)c2cc(S(=O)(=O)N3CC(C)CC(C)C3)ccc21 (configuration not stated)	1.9	-0.41
CCOC(=O)c1nn(-c2ccc(OC)cc2)c(=O)c(C#N)c1C	-1.1	-1.7
Cc1cc(=O)nc2c3ccccc3n(CC(=O)NCCCN3CCCC3=O)n12	-2.3	-0.53
NC(=O)CSc1nccn1C1CCCCC1	1.3	x
CSc1nnc(NC(=O)c2cc(=O)c3ccc(C)c(C)c3o2)s1	1.1	0.28
COc1nc(Nc2ccccc2)nc(OC)n1	x	-3.1
Nc1nc(C(F)(F)F)c(-c2cccc(C(F)(F)F)c2)s1	x	-1.2
O=C(Nc1nc2cc(NS(=O)(=O)c3ccc(Br)cc3)ccc2s1)C1CCCCC1	0.88	x
Cc1ccc(C2OC3(C(=O)c4ccccc4C3=O)C3C(=O)N(Cc4ccc(Cl)cc4)C(=O)C23)cc1 (configuration not stated)	-1.4	0.18
c1csc(-c2nc3c4c5c(sc4ncn3n2)CCCC5)c1	x	-0.68
O=C1CCc2cc(S(=O)(=O)N3CCCC3C(=O)NC3CCCCC3)ccc2N1 (configuration not stated)	1.3	-0.06

Look-ups from the results shown:
For CDC25B CDK2 inh, CCn1cc(C(=O)N2CCc3ccccc32)c(=O)c2cc(S(=O)(=O)N3CC(C)CC(C)C3)ccc21 (configuration not stated) reads -0.41
For HIV TAR-Tat, COc1ccc(N2CCN(S(=O)(=O)c3cc(Br)cnc3N)CC2)cc1 reads 0.96
For HIV TAR-Tat, O=C(Nc1nc2cc(NS(=O)(=O)c3ccc(Br)cc3)ccc2s1)C1CCCCC1 reads 0.88
For HIV TAR-Tat, Cc1cccnc1NC(=O)C1CC(=O)OC12CCCCC2 (configuration not stated) reads 1.2
For CDC25B CDK2 inh, COC(=O)c1ccc(C(=O)Nc2nc3ccc4ccccc4c3s2)cc1 reads -3.7
For HIV TAR-Tat, Cc1[nH]nc(-n2cnnc2)c1NS(=O)(=O)c1ccc2c(c1)CCCC2 reads 3

Remaining list, next part
structure	HIV TAR-Tat	CDC25B CDK2 inh
COc1ccc(OC)c(NC(=O)Cn2nc3c(cc2=O)CCCC3)c1	0.7	-2.5
O=C(c1cccc(NC2=NC3CS(=O)(=O)CC3S2)c1)N1CCN(c2ccccn2)CC1 (configuration not stated)	1.1	0.42
C=CCN1C(=O)C2(c3ccccc31)c1c(oc3ccccc3c1=O)C(=O)N2CCCO (configuration not stated)	0.06	-1.2
CCn1c(SCC(=O)Nc2ccc3c(c2)OCCO3)nc2c(c1=O)SCC2	1.9	0.83
Cc1cc(C)c(-c2c(NC3CCCC(C)C3C)c(=O)c2=O)cc1C (configuration not stated)	0.43	x
CC1(C)NC(=O)N(CC(O)COc2ccc(-c3ccccc3)cc2)C1=O (configuration not stated)	0.95	-0.58
COC(=O)CN1C(=O)CSc2nc(C)cc(C)c21	1.2	-0.37
Cc1nc2ccccc2n1CCOc1ccc(F)cc1	0.35	-0.26
CCC(CCC(=O)Nc1nccs1)C(=O)O (configuration not stated)	2	1.3
CCCCN(C)C(=O)c1ccc(Cl)c(NC2=NC3CS(=O)(=O)CC3S2)c1 (configuration not stated)	1.6	x
Cc1cc2c3c([nH]c2cc1S(=O)(=O)NCCN1CCc2ccccc2C1)CC(C)(C)CC3=O	0.36	x
O=C(Nc1ccccc1Br)N1CCOc2ccccc21	2.1	x
COc1ccc(C(=O)CSc2ncnc3c2nnn3-c2ccc(OC)cc2)cc1	2.9	-0.28
O=C(NCCCN1CCOCC1)c1ccc2c(c1)N(Cc1ccc(F)cc1)C(=O)CS2	x	-1.8
C=CCN1CCN(C2CCN(S(=O)(=O)c3ccc4c(c3)oc(=O)n4C)CC2)C(=O)C1=O	1.2	x
O=C(NCC(c1ccc2c(c1)OCO2)N1CCOCC1)c1ccc2c(c1)OCO2 (configuration not stated)	2.1	x
Cn1c(=O)c(=O)n(C)c2cc(N3CCOCC3)c(NS(=O)(=O)c3ccc(Cl)cc3)cc21	0.13	x
COc1ccc(C2Nc3cc(Cl)ccc3O2)cc1 (configuration not stated)	x	-1.4
O=C(NCc1ccc(F)cc1)N1CCCC1c1ccco1 (configuration not stated)	-0.59	-2.1
CCc1ccc(S(=O)(=O)c2cn(CC)c3cc(F)c(F)cc3c2=O)cc1	-0.02	0.42

Following part:
The line under a structure holds: HIV TAR-Tat	CDC25B CDK2 inh
> O=C1COc2ccc(S(=O)(=O)NCCN3CCN(c4ccccc4F)CC3)cc2N1
    2.9	x
> CC1CCCN(c2csc3ccc(F)cc3c2=O)C1 (configuration not stated)
    1.1	x
> CS(=O)(=O)CS(=O)(=O)Nc1cnccn1
    x	-1.5
> Cc1nc2sc(C(c3cccs3)N3CCN(Cc4ccccc4)CC3)c(O)n2n1 (configuration not stated)
    x	-1.3
> COc1cc(-c2ccc(/C=C/c3[nH]c(=O)[nH]c(=O)c3[N+](=O)[O-])o2)c(OC)cc1Cl
    -2.7	-4
> Nc1ncnc2nc(SCCC(=O)O)[nH]c12
    0.31	-0.54
> CCCCC(=O)NC(c1ccco1)c1cc(Cl)c2cccnc2c1O (configuration not stated)
    -1	0.26
> O=C(C1CCCCC1)N(c1ccc2oc(=O)sc2c1)S(=O)(=O)c1cccs1
    0.37	-1.5
> Cc1nn(CCCC(=O)N2CC(C)CC(C)C2)c(=O)c2cc3occc3n12 (configuration not stated)
    0.61	-0.36
> NC1=NC(c2ccccc2)n2c(nc3ccccc32)N1 (configuration not stated)
    -0.8	1.2
> C=C(C)Cn1c(SCC(=O)OCC)nc2ccccc2c1=O
    x	-0.54
> CCCc1cc(=O)oc2cc(OCC(=O)c3ccc(F)cc3)ccc12
    x	-4.2
> Oc1ccc2ncccc2c1C(Nc1ccccn1)c1ccc(F)cc1 (configuration not stated)
    0.5	2.4
> CCc1nnc2sc(COc3ccc(Cl)cc3)nn12
    0.08	-0.23
> COCCOC(=O)C1=C(C)NC(=O)NC1c1cccc2ccccc12 (configuration not stated)
    x	-0.53
> CCOC(=O)C1CCN(c2c(Nc3cc(C)cc(C)c3)c(=O)c2=O)CC1
    x	-1.6
> COC(=O)C1=NOC2C(=O)N(c3ccc(OC)cc3)C(=O)C12 (configuration not stated)
    -0.01	0.79
> NC(=S)c1cccc(-n2cccc2)c1
    x	-2.8
> CC1(C)CC(=O)c2sc(NS(=O)(=O)c3ccccc3)nc2C1
    -0.86	-0.6
> Nc1ccc2oc(-c3cccc4ccccc34)nc2c1
    0.02	-1.2

Rewritten field by field: four of the compounds above.
O=C(NCCCN1CCOCC1)c1ccc2c(c1)N(Cc1ccc(F)cc1)C(=O)CS2
  HIV TAR-Tat: x | CDC25B CDK2 inh: -1.8

C=CCN1CCN(C2CCN(S(=O)(=O)c3ccc4c(c3)oc(=O)n4C)CC2)C(=O)C1=O
  HIV TAR-Tat: 1.2 | CDC25B CDK2 inh: x

O=C(NCC(c1ccc2c(c1)OCO2)N1CCOCC1)c1ccc2c(c1)OCO2 (configuration not stated)
  HIV TAR-Tat: 2.1 | CDC25B CDK2 inh: x

Cn1c(=O)c(=O)n(C)c2cc(N3CCOCC3)c(NS(=O)(=O)c3ccc(Cl)cc3)cc21
  HIV TAR-Tat: 0.13 | CDC25B CDK2 inh: x

Random excerpt: 2 compounds from above, in no set order.
The line under a structure holds: HIV TAR-Tat	CDC25B CDK2 inh
> CCn1cc(C(=O)N2CCc3ccccc32)c(=O)c2cc(S(=O)(=O)N3CC(C)CC(C)C3)ccc21 (configuration not stated)
    1.9	-0.41
> COc1ccc(N2CCN(S(=O)(=O)c3cc(Br)cnc3N)CC2)cc1
    0.96	-1.3

Following part:
The line under a structure holds: HIV TAR-Tat	CDC25B CDK2 inh
> Cc1ccc(C(=O)NC2CCC(C)CC2)cc1NC1=NC2CS(=O)(=O)CC2S1 (configuration not stated)
    -0.18	-1.9
> Cn1c(=O)c2c(SCC(=O)NC3CCCCC3)nc(-c3cccs3)nc2n(C)c1=O
    x	-1.2
> CN(C)/C=C/C(=O)c1ccc2c(c1)CCC(C)(C)O2
    x	-1.7
> Cc1ccc(-c2c(N(C)Cc3ccccc3)c(=O)c2=O)cc1C
    1.5	x
> CC(C)OCCCN(Cc1ccco1)C(=O)c1c2c(nc3ccccc13)C(=O)N(C1CCCCC1)C2
    -0.43	x
> Cc1ccc(-n2c(=O)c(C#N)cc3c(=O)n4cccc(C)c4nc32)cc1
    0.43	0.33
> CC1CN2C(=O)Cc3c(S(=O)(=O)NCc4cccs4)ccc(c32)S1 (configuration not stated)
    -0.33	x
> Cn1cnc(S(=O)(=O)N2CCCC(C(=O)NCc3cccs3)C2)c1 (configuration not stated)
    1.5	x
> Cc1cccc2[nH]c(SCCOc3ccccc3)nc12
    0.3	1.6
> CC1=C(c2cccc(Br)c2)S(=O)(=O)N=C1N1CCN(c2ccc(F)cc2)CC1
    0.81	-1.5
> O=C(C1=Cc2sc3c(c2CS1)CCCC3)N1CCN(c2ccccc2)CC1
    -0.35	x
> COc1cc2c(cc1OC)C(c1cc(Br)cs1)CC(=O)N2 (configuration not stated)
    1.4	-1
> COc1ccc(OCC(=O)N(Cc2ccco2)Cc2ccco2)cc1
    -0.94	-0.97
> Cc1cccc(C2N=C(N)Nc3nc4ccccc4n32)c1 (configuration not stated)
    -0.69	0.14
> CCOC(=O)c1ccccc1NC(=O)CN(c1cccc(Br)c1)S(C)(=O)=O
    x	0.06
> Cc1cc(C(=O)Nc2ccccc2N2CCCCC2)nn1C
    x	-2.1
> Cc1cc(C)n(CC(=O)Nc2cc(F)ccc2F)c(=O)c1C#N
    0.82	x
> O=C(C1CCN(c2nnc(N3CCCCC3)c3ccccc23)CC1)N1CCN(c2ccccc2)CC1
    -0.75	-1.3
> Cc1ccc(NS(=O)(=O)c2ccc3c4c2CC(=O)N4CC(C)S3)c(Cl)c1 (configuration not stated)
    0.31	x
> CNC(=O)N(C1=NCC(C)(C)S1)c1ccccc1
    0.28	0.33

Carrying on.
The line under a structure holds: HIV TAR-Tat	CDC25B CDK2 inh
> Cc1ccc2nsnc2c1S(=O)(=O)O
    x	-0.16
> Cn1c(CNC(=O)CC2c3ccccc3Oc3ccccc32)nc2ccccc21
    2.5	-0.74
> COc1cc(C2Nc3ccc4ncccc4c3C3=C2C(=O)CC(C)(C)C3)ccc1O (configuration not stated)
    -0.52	-1.7
> COc1ccc(/C(O)=C2\C(=O)C(=O)N(CCCN3CCOCC3)C2c2ccc(Cl)cc2)cc1 (configuration not stated)
    -0.01	-0.68
> COC(=O)CC1Oc2ccccc2-n2cc(-c3ccc(F)cc3)nc21 (configuration not stated)
    0.61	-1.6
> CCCCn1c(N)nc2ccccc21
    -1.7	1.1
> CC(C)Cc1nn2c(=O)cc(COC(=O)COc3ccc(F)cc3)nc2s1
    1.3	x
> OCC1NCC(O)C(O)C1O (configuration not stated)
    x	-2.8
> O=C(NCc1ccccc1)c1cc2nc(C3CC3)cc(C(F)(F)F)n2n1
    1.1	0.1
> COC(=O)Cc1c(C(=O)OC)nnn1-c1ccc(OC)cc1
    1.7	-0.93
